Screens as filed in PubChem BioAssay.
Sa growth inh: inhibitors of Staphylococcus aureus growth at 42 °C; S. aureus RN4220 growth, OD600, 20 h; hits give low values; 170,000 compounds, 0.53% hits; relative growth, % (no concentration beside the values); AID 720641;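 active = growth at 42 °C up to 50% and 20 or more points under that at 30 °C, or under 10% at both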;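 also: 300 nL library stock went into each well; scaled to the means of positive and negative controls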
GIV Gai3 FP: blocks GIV peptide binding to rat Galpha-i3; P08753; Galpha-i3/FITC-GIV peptide fluorescence polarization, 90 min; hits give low values; scaled: aluminum fluoride 0%, vehicle 100%; percent of control (FP), % (test concentration not listed); 210,000 compounds, 0.42% hits;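 active = replicate mean at 85% of control or lower, very high polarization wells dropped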;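 also: wells of about 15 µL received 100 nL stock; the first replicate is given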
Target sequence (P08753 whole entry, looked up): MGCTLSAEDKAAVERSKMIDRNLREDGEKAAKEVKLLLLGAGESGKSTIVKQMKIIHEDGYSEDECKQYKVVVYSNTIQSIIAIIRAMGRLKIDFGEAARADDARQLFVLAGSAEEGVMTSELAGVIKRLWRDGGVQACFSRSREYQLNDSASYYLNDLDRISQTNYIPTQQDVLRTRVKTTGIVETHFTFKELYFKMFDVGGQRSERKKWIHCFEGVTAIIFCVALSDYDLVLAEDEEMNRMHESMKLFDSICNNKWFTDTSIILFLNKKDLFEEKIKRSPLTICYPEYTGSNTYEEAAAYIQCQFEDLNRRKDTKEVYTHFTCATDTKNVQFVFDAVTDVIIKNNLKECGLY
HCMV NEC inh: disrupts HCMV UL50-UL53 complex binding; HTRF UL50-UL53 interaction, normalized percent inhibition; inhibition, % (no concentration beside the values); 190,000 compounds, 0.15% hits; AID 1918969;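 active = both replicates at 50% or more, plus weaker picks with an unusually low signal ratio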;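 also: stock transfer was 100 nL into about 20 µL; 0% = negative control wells and 100% = wells with untagged competitor protein; inactives centre near -12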
Sa growth inh second temp: second read-out of Sa growth inh, no call of its own (marks repeat the call); relative growth, %; measured here: growth at 30 °C;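 optical density after 20 h as mean of two plates; 100% = untreated growth and lower means inhibition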
Numbers without * were called inactive; · = no result given; & = joins results of further samples. This is a subset, so the mix of outcomes need not match the whole.

Start of the listing, in advance (22 entries):
SMILES	Sa growth inh	Sa growth inh second temp	GIV Gai3 FP	HCMV NEC inh
CC1(c2ccc3c(c2)OCCO3)NC(=O)N(CN2CC=C(c3ccccc3)CC2)C1=O (centres undefined)	89.7	93.5	·	-21.4
COCC(=O)OCC1CCCN2CCCCC12 (centres undefined)	89.5	86.0	·	-0.4
COc1cccc(N=Cc2c(O)n(Cc3ccco3)c(=O)[nH]c2=O)c1	112.0	88.6	110.8	-3.7
CCOc1ccc(C(=O)OC2CC3CCC(C2)N3C)cc1 (centres undefined)	74.3	89.5	102.7	·
NCCCN1CCN(c2ccccc2)CC1	103.3	104.6	103.2	-5.8
CN(C)C(=O)Oc1ccc2c(-c3ccccc3)cc(=O)oc2c1	92.0	72.6	97.9	-7.0
O=C(Nc1ccccc1)OC1CN2CCC1CC2 (centres undefined)	78.1	92.5	108.0	-3.2
CC(C)n1cc(C(=O)N(C2CC2)C(C(=O)NC2CCCC2)c2ccccc2)cn1 (centres undefined)	96.3	108.1	102.1	5.3
COc1cc(CN2CC=C(c3ccc(F)cc3)CC2)cc(OC)c1	97.1	97.7	96.1	-3.3
CCOc1cc(CN2CCN(C(=O)COc3ccc(C)cc3)CC2)ccc1OC	101.1	92.2	105.8	·
O=C1CSC2N1CCNC21CCCCC1 (centres undefined)	97.8	102.6	99.8	-25.5
O=C(c1cc2ccccc2o1)N1CCN(c2ccccc2)CC1	97.7	97.6	98.9	-6.8
CC(C)(C)C1CCC(N2CCOCC2)CC1 (centres undefined)	99.8	102.2	101.4	-6.8
CN1CCN(Cc2ccc(O)c3ncccc23)CC1	75.2	91.8	·	-37.4
O=C(Cc1ccccc1)N1CCN(CCCc2ccccc2)CC1	107.6	62.0	·	-1.7
Cc1c(/C(CC(C)C)=N/O)c2ccccc2n1C	75.0	84.6	103.6	-39.1
NCc1cc(=O)[nH]o1	·	·	97.4	0.3&-20.3
COC(=O)C1=C(C)OC(N)=C(C#N)C12C(=O)Nc1ccccc12 (centres undefined)	·	·	104.4	-7.4
O=C(Cn1c(-c2cccs2)cc2ccccc21)N1CCC2(CC1)OCCO2	109.5	106.1	101.0	2.9
Cc1ccc(-n2nc(C)c3c2NC(=O)CSC3c2ccc(O)cc2)cc1Cl (centres undefined)	99.2	65.6	104.8	10.8
O=C(NCCCN1CCOCC1)c1cc2cccnc2n(Cc2ccc(F)cc2)c1=O	·	·	108.0	-19.7
COc1ccc(OC)c(N2C(=O)NC(=O)C(CCc3ccccn3)(CCc3ccccn3)C2=O)c1	107.6	101.9	101.6	-11.6

Main list, from the start:
SMILES	Sa growth inh	Sa growth inh second temp	GIV Gai3 FP	HCMV NEC inh
CC1(c2ccc3c(c2)OCCO3)NC(=O)N(CN2CC=C(c3ccccc3)CC2)C1=O (centres undefined)	89.7	93.5	·	-21.4
COCC(=O)OCC1CCCN2CCCCC12 (centres undefined)	89.5	86.0	·	-0.4
COc1cccc(N=Cc2c(O)n(Cc3ccco3)c(=O)[nH]c2=O)c1	112.0	88.6	110.8	-3.7
CCOc1ccc(C(=O)OC2CC3CCC(C2)N3C)cc1 (centres undefined)	74.3	89.5	102.7	·
NCCCN1CCN(c2ccccc2)CC1	103.3	104.6	103.2	-5.8
CN(C)C(=O)Oc1ccc2c(-c3ccccc3)cc(=O)oc2c1	92.0	72.6	97.9	-7.0
O=C(Nc1ccccc1)OC1CN2CCC1CC2 (centres undefined)	78.1	92.5	108.0	-3.2
CC(C)n1cc(C(=O)N(C2CC2)C(C(=O)NC2CCCC2)c2ccccc2)cn1 (centres undefined)	96.3	108.1	102.1	5.3
COc1cc(CN2CC=C(c3ccc(F)cc3)CC2)cc(OC)c1	97.1	97.7	96.1	-3.3
CCOc1cc(CN2CCN(C(=O)COc3ccc(C)cc3)CC2)ccc1OC	101.1	92.2	105.8	·
O=C1CSC2N1CCNC21CCCCC1 (centres undefined)	97.8	102.6	99.8	-25.5
O=C(c1cc2ccccc2o1)N1CCN(c2ccccc2)CC1	97.7	97.6	98.9	-6.8
CC(C)(C)C1CCC(N2CCOCC2)CC1 (centres undefined)	99.8	102.2	101.4	-6.8
CN1CCN(Cc2ccc(O)c3ncccc23)CC1	75.2	91.8	·	-37.4
O=C(Cc1ccccc1)N1CCN(CCCc2ccccc2)CC1	107.6	62.0	·	-1.7
Cc1c(/C(CC(C)C)=N/O)c2ccccc2n1C	75.0	84.6	103.6	-39.1
NCc1cc(=O)[nH]o1	·	·	97.4	0.3&-20.3
COC(=O)C1=C(C)OC(N)=C(C#N)C12C(=O)Nc1ccccc12 (centres undefined)	·	·	104.4	-7.4
O=C(Cn1c(-c2cccs2)cc2ccccc21)N1CCC2(CC1)OCCO2	109.5	106.1	101.0	2.9
Cc1ccc(-n2nc(C)c3c2NC(=O)CSC3c2ccc(O)cc2)cc1Cl (centres undefined)	99.2	65.6	104.8	10.8
O=C(NCCCN1CCOCC1)c1cc2cccnc2n(Cc2ccc(F)cc2)c1=O	·	·	108.0	-19.7
COc1ccc(OC)c(N2C(=O)NC(=O)C(CCc3ccccn3)(CCc3ccccn3)C2=O)c1	107.6	101.9	101.6	-11.6
CN1CCN(C(=O)COc2ccc(-c3nc(-c4ccccc4)no3)cc2)CC1	·	·	107.1	-24.7
c1ccc(CCNCc2ccc3c(c2)OCO3)cc1	104.1	76.9	100.1	-11.2
COC(=O)C1=C(N)Oc2cc(C)oc(=O)c2C12C(=O)Nc1ccccc12 (centres undefined)	76.1	83.0	99.2	5.3
Next part:
SMILES	Sa growth inh	Sa growth inh second temp	GIV Gai3 FP	HCMV NEC inh
N#CCc1ccsc1	93.8	92.3	·	-21.1
c1ccc(OC[C@@H]2CCCN3CCCCC23)nc1 (some centres undefined)	·	·	100.4	-12.0
CCOc1ccc(CN(CCc2ccc3c(c2)OCO3)Cc2cc(OC)ccc2O)cc1	72.1	84.3	102.2	-14.6
CN1CCN(c2cc(Cl)nc(N)n2)CC1	·	·	102.5	-21.9
Cc1ccccc1NC1=NC(C)(C)CS1	98.2	93.3	·	-17.8
Cc1nnc(NC(=O)c2cccn(Cc3cccc(Cl)c3)c2=O)s1	94.8	81.3	101.6	·
Cc1cccc(NC2=NC(C)CS2)c1 (centres undefined)	126.3	83.6	·	-11.0
c1cncc(C2Nc3ccccc3-n3cccc32)c1 (centres undefined)	97.2	75.7	99.7	-61.2
CC1(C)CN=C(Nc2ccc(F)c(Cl)c2)S1	105.1	87.8	99.5	-13.5
Fc1ccccc1CN1CCN(Cc2ccccc2F)CC1	103.8	99.5	102.0	-29.6
N#Cc1c(/N=C/c2ccc(O)cc2O)sc2c1C1CCN2CC1	92.3	69.0	303.3	-48.2
Cc1ccc2[nH]cc(C(O)CN3CCCCC3)c2c1 (centres undefined)	·	·	106.4	-34.3
CC(C)C12CN3CN(C1)CC(C(C)C)(C3)C2O (centres undefined)	·	·	101.3	13.0
COc1ccc2c(c1)C13CCCCC1C(C2)N(C)CC3 (centres undefined)	·	·	103.7	-20.6
NC(=O)OCCCc1ccccc1	89.8	92.6	·	-46.9
Fc1c(F)c2c(c(F)c1Cl)Oc1ccccc1O2	92.6	80.7	107.3	-13.6
CCOC(=O)C1=C(C)N(C)C2(C)CC1c1ccccc1O2 (centres undefined)	94.1	88.8	93.3	·
CCOC(=O)c1c(N(C(C)=O)C(C)=O)n(CCCOC)c2nc3ccccc3nc12	94.2	90.8	·	-38.4
O=[P+](O)c1ccc(Cl)cc1	95.1	95.9	·	-12.9
CCOC(=O)C1=NN(c2ccc(C)cc2)C2c3cccc4cccc(c34)C12 (centres undefined)	103.0	85.1	102.9	-28.6
COc1ccccc1CC(C)N (centres undefined)	70.0	89.5	95.3	11.6
COc1ccc(CC2CC3CCN2CC3)cc1 (centres undefined)	93.1	93.8	96.0&99.2	-16.5
Cc1ccc(N=C(N(C)C)P(=O)(N(C)C)N(C)C)cc1	110.0	89.7	·	-16.7
CC1=C(C(=O)OC(C)(C)C)C2(C(=O)Nc3ccc(Br)cc32)C(C(=O)OC(C)(C)C)=C(N)O1 (centres undefined)	·	·	111.5	7.0
N=c1c[n+](C2CCCCC2)[n-]o1	111.2	90.2	·	-21.5
(continued)
SMILES	Sa growth inh	Sa growth inh second temp	GIV Gai3 FP	HCMV NEC inh
COc1cc(N)c(Cl)cc1C(=O)NC1CN2CCC1CC2 (centres undefined)	95.5	91.0	·	-12.4&-10.4
Cc1ccccc1-n1c(/C=C/c2ccccc2F)nc2ccccc2c1=O	96.9	88.8	110.1	-47.8
CCCCNC(=O)c1cc2cccnc2n(Cc2ccccc2)c1=O	98.3	102.1	102.2	13.2
CSc1nc2ccccc2c(=O)n1-c1ccc(F)cc1F	98.8	101.6	·	18.3
Cc1sc2ccccc2c1CC1=NCCN1	·	·	100.6	-79.0
CCCCc1ccc(C(=O)O)nc1	·	·	99.4	-21.3&-31.5
CCCCOC(=O)c1ccccc1C(=O)OCCCC	91.5	86.7	·	-20.3
Clc1cnc(Oc2ccc(Oc3ncc(Cl)cc3Cl)cc2)c(Cl)c1	·	·	101.1	-16.1
CCCC[N+]1(C)C2CC(OC(=O)[C@H](CO)c3ccccc3)CC1C1OC12 (some centres undefined)	·	·	103.9	-8.7
CCOC(=O)c1c(CN2CCN(C)CC2)n(Cc2ccccc2)c2cc(Br)c(O)cc12	·	·	100.3	-11.3
CN1CC=C(/C=C/c2ccc(-c3ccccc3)cc2)CC1	25.4	1.6	101.9	-33.4
COc1ccc(C=C2C(=O)NC(=O)NC2=O)cc1	82.4	90.7	97.4	·
CSc1ccc(C=C(C#N)C#N)s1	90.9	72.6	105.3	-44.2
CC1C(c2ccccc2)=NOC(C)(C(=O)c2ccccc2)N1O (centres undefined)	86.8	89.3	·	-10.2
Cc1ccccc1NC1=NCCS1	116.0	80.8	·	-28.7
CN(C)CCSc1nc2ccccc2c(=O)n1-c1ccccc1	92.4	89.7	·	3.9
CCOc1cc(N(CC)CC)ccc1C=C1C(=O)NC(=S)NC1=O	98.8	91.7	124.5	-11.3
CCOC(=O)C1C2NC(=S)NC1(C)Oc1ccccc12 (centres undefined)	125.9	94.8	99.7	-33.4
C=CCN1C(=O)NC(=O)/C(=C/C=C/c2ccccc2)C1=O	100.6	31.3	154.8	4.1
Cn1c(=O)c(C2(O)C(=O)NC(=O)NC2=O)c(O)c2ccccc21	99.8	67.6	103.2	1.5
c1ccc2c(c1)OCC(C1=NCCN1)O2 (centres undefined)	91.0	77.5	107.6&101.4	-26.1&-9.5&-39.2&-5.1
Cc1oc2ccccc2c1-c1ccc2ccccc2n1	33.6*	73.6*	·	-11.2
NCCc1ccc(O)cc1	·	·	97.1	-16.4
COc1cccc([C@H]2[C@@H]3C(=NN2C(C)=O)C2CCN3CC2)c1	·	·	102.0	-14.5
CCCCn1c(C)c(C(=O)OCC)c2cc(OC(=O)Cc3ccccc3)c3ccccc3c21	·	·	96.3	7.3
Next part
SMILES	Sa growth inh	Sa growth inh second temp	GIV Gai3 FP	HCMV NEC inh
Oc1ccc(CC2CC3CCN2CC3)cc1 (centres undefined)	91.5	96.4	98.0	·
N#Cc1nn(-c2c(Cl)cc(C(F)(F)F)cc2Cl)c(N)c1S(=O)C(F)(F)F (centres undefined)	89.1	82.5	·	-53.6&-1.3
CC(C)C(=O)N1N=C(c2cccnc2)CC1(O)C(F)(F)F (centres undefined)	122.2	93.2	104.3	-22.4
Cc1ccc2c(c1)C1CN(C)CCC1N2S(=O)(=O)c1ccccc1 (centres undefined)	87.5	88.4	·	-27.0
CC12NCCC1(C)c1ccccc1N2 (centres undefined)	93.3	92.6	101.3	-6.7
Cc1ccc(C2C(C=C3C(=O)NC(=O)NC3=O)=C(c3cccs3)Oc3ccccc32)cc1 (centres undefined)	70.9	45.4	102.8	·
O=C1c2ccccc2C2(c3ccc(Cl)cc3)NCCN12 (centres undefined)	101.4	93.6	·	-6.3
CC(=O)OCC1=C(C(=O)[O-])N2C(=O)[C@@H](NC(=O)CCC[C@@H](N)C(=O)[O-])[C@H]2SC1.[Zn+2]	·	·	101.0	62.3
CCOC(=O)C1CN(C)CCC1=O (centres undefined)	85.7	83.9	101.7	-26.4
O=C(O)c1ccc2c(c1)N=C(Cl)c1ccccc1S2	109.5	94.3	106.0	-0.9
CC[C@]12C=CCN3CCC4(c5cc(Br)c(OC)cc5N(C)C4[C@@](O)(C(=O)OC)[C@@H]1OC(C)=O)C32 (some centres undefined)	101.7	93.9	93.0	-18.5
CCS(=O)(=O)Nc1cccc(C(=C2CCCCC2)c2cnc[nH]2)c1	·	·	86.9	-25.2
C=C(C)CC1NC2CC(C)(C)C1c1ccccc12 (centres undefined)	89.3	87.2	·	1.0
Clc1ccc(CON=C(Cn2ccnc2)c2ccc(Cl)cc2Cl)c(Cl)c1	0.0*	0.7*	·	42.0
O=c1c2ccccc2nc(Sc2ncccn2)n1-c1ccc(OC(F)F)cc1	77.3	84.8	·	-17.9
